Source: PubChem (National Center for Advancing Translational Sciences (NCATS))
StopGo RLuc: Primary qHTS Assay for Foot and Mouth Disease Virus Antivirals against NCGC Sytravon and CBC Compound Libraries: Renilla Luciferase Signal; Potency, µM (doses to about 57.5 µM), inactives show at the top dose signal change, negative = less light; AID 1745857, 2022; HEK cells with a luciferase reporter of 2A StopGo recoding; actives 0.32% (n = 120,000); active means well fitted falling curve with a large enough effect; inconclusive means small, poorly fitted or top-dose-only effect; inactive means no such curve, though single readings can be large or run the other way; further: nearly all actives have a fitted effect of over 55% in size; overnight with compound
StopGo FLuc: Primary qHTS Assay for Foot and Mouth Disease Virus Antivirals against NCGC Sytravon and CBC Compound Libraries: Firefly Luciferase Signal. actives 0.23% (n = 120,000). HEK cells with a luciferase reporter of 2A StopGo recoding. Potency, µM (titrated, usually from 57.5 µM), inactives show at the highest dose signal change, negative = less light; active = well fitted falling curve with a large enough effect; inconclusive = small, poorly fitted or top-dose-only effect; inactive = no such curve, though single readings can be large or run the other way; further: nearly all actives have a fitted effect of over 60% in size; overnight with compound
Starred values were filed as active, the others as inactive; ? = inconclusive; & = joins results of further samples; [ ] = dose if it differs, or a comment. On the % scale 0 is the no-effect control and ±100 the full control effect; potency means the concentration at half of the fitted maximal effect. The order is random; any-hit rate near 0.53%.

SMILES | StopGo FLuc | StopGo RLuc
CC(C)c1cccc(C(C)C)c1NC(=O)CC1C=CCC1 (stereo not given) | 0% | 2%
CN(C)C(=O)c1ccc(NC(=O)COc2ccccc2-c2ccccc2)cc1 | 15% | 24%
Cc1cnc2c(S(=O)(=O)NC(C3CC3)C3CC3)cccc2c1 | -17% | 141%[activator]
COC(=O)CNC(=O)/C=C/c1ccccc1 | 13% | -2%
Cc1csc(SCC(=O)Nc2cccc(C)c2C)n1 | 39%[activator] | -4%
Cc1ccc(C)c(NC(=O)CSc2cn(CC(=O)N3CCCCC3)c3ccccc23)c1 | 9% | 3%
COc1ccc(OC)c(CNC(=O)N2CCc3sccc3C2)c1 | 5% | 50%[activator]
CCn1cc2nc(SCC(=O)Nc3ccc(C)cc3)n(Cc3ccc(C)cc3)c(=O)c2n1 | -21% | 45%[activator]
CCC(C)NC(=O)C1=CC(c2cc(OC)ccc2OC)=NS(=O)(=O)N1C (stereo not given) | -4% | 9%
CN(Cc1ccccc1)C(=O)c1cc2c(=O)n(C)c3ccccc3c2s1 | ? | ?
Cc1ccc(O)c(-c2ccnc3cc(-c4ccccc4)nn23)c1 | 12% | 2%
COc1ccc(/C=N/O)cc1 | 9% | 4%
Cc1cc(C)n(-c2nc3c(c(=O)n(CC(N)=O)c(=O)n3C)n2CCc2ccccc2)n1 | 5% | 16%
Cc1ccccc1OCc1ccc(-c2nc(C#N)c(N3CCN(c4ccccc4)CC3)o2)o1 | -22% | -13%
CSc1cccc(NC(=O)Cn2cnc(S(=O)(=O)N3CCCC3)c2)c1 | -6% | -4%
Clc1cccc(Nc2nc(NC3CCCC3)nc3c2cnn3-c2ccccc2)c1 | -6% | 4%
CCOC(=O)c1sc2ncn(CC(=O)Nc3ccc(C)cc3Br)c(=O)c2c1C | -20% | -15%
COc1ccc(C(=O)Nc2ncc3c(n2)CC(c2ccco2)CC3=O)cc1 (stereo not given) | 5% | 0%
Cc1ccc(NC(=O)CSCn2nnc3c(=O)[nH]c(Cc4ccc(F)cc4)nc32)c(C)c1 | 11%&25% | 9%&-5%
Cc1ccc(CSc2nc3nccnc3c(=O)n2Cc2ccc3c(c2)OCO3)cc1 | 2% | -2%

(list continues)
SMILES | StopGo FLuc | StopGo RLuc
CCOC(=O)c1c(C)oc2nc(C)nc(NCCCN3CCN(c4cccc(C)c4)C(C)C3)c12 (stereo not given) | 0% | -5%
Cc1nc2nc(C(F)(F)F)[nH]n2c(=O)c1Cc1ccccc1Cl | 19% | -29%
O=C(CN1C(=O)COc2ccc(S(=O)(=O)N3CCCCCC3)cc21)Nc1cccc(Cl)c1 | -12% | 31%[activator]
CCOc1ccc(C(=O)Nc2cc(C(F)(F)F)ccc2Cl)cc1Cl | 3% | 0%
CC(C)n1nc(C(=O)Nc2ccc(S(=O)(=O)N(C)C)cc2)c2ccccc2c1=O | 4% | 4%
Cc1cc(C)cc(Oc2nc3c(C)cccn3c(=O)c2/C=C(\C#N)c2nc3ccccc3s2)c1 | -9% | -16%
CC(C)NC(=O)c1ccc2c(c1)nc1n2CCCCC1 | 79%[activator] | -1%
COC(=O)c1c(-c2ccc(Cl)cc2)noc1N1CCN(c2ccc(OC)cc2)CC1 | -14% | -11%
CCCN(CC(F)(F)F)C(=O)CCCc1c[nH]c2ccccc12 | 15% | 14%
Cc1ccc(C(c2cccc([N+](=O)[O-])c2)c2ccc(C)s2)s1 | -14% | -11%
COc1ccc(CCNC(=O)Cn2c(=O)n(-c3ccccc3)c(=O)c3c(C)c(C)sc32)cc1OC | 8% | -11%
Cc1ccnc(Sc2nc3c(c(=O)[nH]c(=O)n3C)n2Cc2ccccc2Cl)n1 | 13% | -2%
COc1ccc(C(NC(=O)C2CC2)c2nccc3cc(OC)c(OC)cc23)cc1OC (stereo not given) | 25% | 37%[activator]
CCN(CC)c1cc(C)c2cc(NC(=O)/C=C/c3ccccc3Cl)ccc2n1 | -15% | -9%
O=C(O)C1(c2cccc(Br)c2)CCOCC1 | 13% | 8%
Cc1cccc(Cn2c(SCc3ccc(C(=O)NC4CCCC4)cc3)nc3cccnc32)c1 | -17% | 34%
COc1cc2[nH]c(=O)n(Cc3ccc(C(=O)NCc4ccc(C)cc4)cc3)c(=O)c2cc1OC | -15% | -8%
O=C(NCc1ccccc1)c1cccn1-c1nnc(N2CCCCC2)s1 | -7% | -12%
CN(CC(=O)Nc1ccc(F)cc1)Cc1cnn(-c2ccccc2)c1 | 4% | -5%
C/C(=N/O)c1cc(Cl)ccc1O | 13% | -6%

Next part.
SMILES | StopGo FLuc | StopGo RLuc
CCCC(=O)N(c1ccc(OC)cc1OC)C1C=CS(=O)(=O)C1 (stereo not given) | 6% | -6%
O=C(Nc1ccc(-c2ccccc2)cc1)c1ccccc1F | 171%[activator] | 4%
O=C(OCC(=O)N1CCc2ccccc21)c1n[nH]c(=O)c2ccccc12 | 0% | 9%
Cn1c(=O)cc(OCC(=O)N2CCN(c3ccccc3F)CC2)c2ccccc21 | -9% | -10%
COCCCNC(=O)CCc1c(C)nc2cc(-c3ccc(Cl)cc3)nn2c1C | ? | -8%
COc1ccc2cc(-c3nc4ccc(C(=O)O)cc4[nH]3)c(=O)oc2c1 | ? | 0%
CCN(CC)C(=O)c1cn(CCC#N)nc1-c1cccc(Cl)c1 | -6% | 16%
Cn1c(=O)c2c(-c3ccc(Cl)cc3)n(Cc3ccc(Cl)cc3)cc2n(C)c1=O | 7% | 4%
Cc1cccc(-n2c(/C=C/c3cn(C)c4ccccc34)nc3ccccc3c2=O)c1 | -11% | -3%
Cc1nc(/C=C/C(=O)N2CCCCCC2)cs1 | 8% | 2%
CC(=O)Nc1ccc(OCc2cc(=O)n3ccccc3n2)cc1 | 34%[activator] | 3%
CCOc1ccc(N(CC)S(=O)(=O)N2CCCC(C(=O)NCc3ccccc3OCC)C2)cc1 (stereo not given) | -1% | -3%
CS(=O)(=O)NN1C(=O)c2ccccc2NC1c1ccco1 (stereo not given) | 0% | -5%
CCC(C)NC(=O)c1ccc2c(c1)N(Cc1ccccc1)C(=O)c1ccccc1S2(=O)=O (stereo not given) | 0% | 69%[activator]
O=C(CCS(=O)(=O)c1ccc2c(c1)CCN2C(=O)C1CC1)NC1CCCCCCC1 | -1% | -6%
CCc1ccc(NC(=O)CCS(=O)(=O)c2ccc3c(c2)oc(=O)n3C)cc1 | ? | -11%&-8%
CCOc1ccc(CNC(=O)C2CCN(S(=O)(=O)c3ccc4c(ccn4C)c3)CC2)cc1 | -20% | 78%[activator]
COc1ccc(CNC(=O)Cc2n[nH]c(=O)c3ccccc23)cc1 | 18% | -9%
Cc1cccc(NC(=O)C2CCCN(S(=O)(=O)c3c(C)[nH]c(=O)[nH]c3=O)C2)c1C (stereo not given) | -6% | -12%
COc1cc(Cl)c(C)cc1NC(=O)Cn1c2ncccc2c(=O)n1-c1ccccc1 | -27% | -6%

Reformatted as labelled records: part of the list above
O=C(Nc1ccc(-c2ccccc2)cc1)c1ccccc1F
  StopGo FLuc = 171%[activator] | StopGo RLuc = 4%
O=C(OCC(=O)N1CCc2ccccc21)c1n[nH]c(=O)c2ccccc12
  StopGo FLuc = 0% | StopGo RLuc = 9%
Cn1c(=O)cc(OCC(=O)N2CCN(c3ccccc3F)CC2)c2ccccc21
  StopGo FLuc = -9% | StopGo RLuc = -10%
COCCCNC(=O)CCc1c(C)nc2cc(-c3ccc(Cl)cc3)nn2c1C
  StopGo FLuc = ? | StopGo RLuc = -8%

Following part
SMILES | StopGo FLuc | StopGo RLuc
Cc1ccc(-c2nc3cccnc3s2)cc1NC(=O)Cc1ccccc1 | 134%[activator] | -8%
CCc1cccc(C)c1Nc1c(-c2ccc(N3CCOCC3)cc2)nc2ncccn12 | 0% | -4%
COCC(C)NC(=O)c1cnn2c(C(F)F)cc(-c3ccccc3)nc12 (stereo not given) | -18% | -12%
Cc1ccc(-c2nc(CNC(=O)C(C)Oc3ccccc3F)cs2)cc1 (stereo not given) | ? | ?
N#CCC(=O)Nc1ccc(C(=O)OCc2cccc(F)c2F)cc1 | 0% | -5%
CCCCN(CC)CCCNC(=O)c1cn(CC)c2ccc(S(=O)(=O)N3CCOCC3)cc2c1=O | -31% | -18%
COc1cc(C)ccc1OCCSc1nc2ccc(NC(C)=O)cc2s1 | 80%[activator] | 1%
CCc1ccc(S(=O)(=O)c2cn(CC)c3cc(N4CCOCC4)c(F)cc3c2=O)cc1 | 3% | 0%
CC(NC(=O)c1ccc2c(c1)CCCC2)c1ccccc1 (stereo not given) | 39%[activator] | 21%
COC(=O)CN1C(=O)CSc2ccc(S(=O)(=O)Nc3c(C)cc(C)cc3C)cc21 | -17% | 8%
CNC(=S)NNC(=O)c1csc(C(C)C)c1 | 79%[activator] | 3%
COc1ccc(-c2nc3ccccc3o2)cc1NC(=O)c1cccnc1 | 182%[activator] | 62%[activator]
Cc1cc(C)c(C(=O)Nc2ccccc2C)c(SCC(=O)NC2CCCCC2)n1 | 5% | 21%
COc1ccc(C2(Nc3cccc(C(=O)O)c3C)C(=O)c3ccccc3C2=O)cc1 | 59%[activator] | 10%
CCOC(=O)c1c(C)n(-c2ccccc2)c2ccc(OC(=O)c3ccccc3)cc12 | -14% | -14%
O=C(NC1CCCC1)c1csc2ccccc12 | 125%[activator] | 28%
COc1ccc(Oc2coc3cc(OC(=O)c4ccc(C)cc4)ccc3c2=O)cc1 | 0% | 3%
CC(=O)Nc1cccc(NC(=O)CSCc2nc3ccccc3c(=O)[nH]2)c1 | -2% | -5%
O=C(Cc1cccc(F)c1)N(Cc1ccco1)C1CC1 | 14% | 40%
CCNc1c(NC(=O)Cc2ccc(OC)cc2)c(=O)oc2ccccc12 | -1% | 0%

Rewritten with each value named: part of the list above.
Molecule: O=C(NC1CCCC1)c1csc2ccccc12
  StopGo FLuc: 125%[activator]
  StopGo RLuc: 28%
Molecule: COc1ccc(Oc2coc3cc(OC(=O)c4ccc(C)cc4)ccc3c2=O)cc1
  StopGo FLuc: 0%
  StopGo RLuc: 3%
Molecule: CC(=O)Nc1cccc(NC(=O)CSCc2nc3ccccc3c(=O)[nH]2)c1
  StopGo FLuc: -2%
  StopGo RLuc: -5%
Molecule: O=C(Cc1cccc(F)c1)N(Cc1ccco1)C1CC1
  StopGo FLuc: 14%
  StopGo RLuc: 40%

Carrying on.
SMILES | StopGo FLuc | StopGo RLuc
O=C(c1ccc(Cn2cncn2)cc1)N1CCN(c2ccc(Cl)cc2)CC1 | -22% | ?
CCC(CC)NC(=O)N(C)Cc1ccccc1 | 11% | 13%
CC(=O)Nc1ccc(S(=O)(=O)[C@H]2CS(=O)(=O)C[C@@H]2N2CCOCC2)cc1 | -6% | -21%
CCOc1ccc(NC(=O)c2oc3ccccc3c2NC(=O)C(C)(C)C)cc1 | 38%[activator] | 9%
O=C(CSCc1cnn(-c2ccccc2)c1-n1cccc1)Nc1ccc(F)cc1F | -18% | 5%
O=C(c1ccc2ccccc2n1)N(Cc1cccs1)C1CC1 | 0% | 104%[activator]
CCOc1ccc(NC(=O)CC2C(=O)OCCN2CC)cc1 (stereo not given) | -20% | -13%
O=C(O)CNC(=O)c1ccc(-c2ccccc2)cc1 | 6% | 1%
CN1C(=O)N(c2ccc(Cl)cc2)C(C)(O)CC1(C)C (stereo not given) | 35%[activator] | -9%
COC(=O)/C(C#N)=C\c1cc(Br)ccc1OCc1c(Cl)cccc1Cl | 0% | 40%[activator]
COc1cc(OC)c(NC(=O)c2cn(C)c(=O)c3cc(OC)c(OC)cc23)cc1Cl | 2% | -2%
CCOc1cc(C2C(C(=O)OC)=C(C)NC3=C2C(=O)c2ccccc23)ccc1OCc1ccccc1 (stereo not given) | 2% | 39%[activator]
O=C(OCc1ccccc1)c1ccc(C(=O)c2ccccc2)cc1 | 5% | 2%
CCOCCCNC(=O)c1[nH]c2cc(C)ccc2c1Sc1ccc(Cl)cc1 | -14% | -10%
O=C(COC(=O)c1cccs1)c1ccc2c(c1)-c1ccccc1C2 | 27% | 16%
COCCCNC(=O)c1ccc(Cn2c(=O)c3ccccc3n(CC(=O)Nc3c(C)cccc3C)c2=O)cc1 | -5% | 1%
COc1ccccc1NC(=O)C1=C(C)Nc2nc(SCc3ccccc3F)nn2C1c1ccncc1 (stereo not given) | -12% | -5%
CC(C)(C)C(=O)NC1(C(F)(F)F)NC(=O)N(c2ccc(F)cc2)C1=O (stereo not given) | 67%[activator] | -6%
COC(=O)c1ccc(COc2ccc3c(=O)c(-c4ccc(OC)cc4)c(C)oc3c2)cc1 | -9% | -8%
CCSc1nc2n(n1)C(c1ccccc1Cl)C1=C(CCCC1=O)N2 (stereo not given) | -8% | 0%

(further entries)
SMILES | StopGo FLuc | StopGo RLuc
Nc1nccnc1C(=O)NCCCc1ccccc1 | 0% | 5%
COc1cc(C(=O)Nc2cnc3ccccc3c2)ccc1OC(F)F | 143%[activator] | 11%
Nc1nccnc1C(=O)NCc1ccc(-c2ccc(F)cc2)o1 | -25% | ?
Cc1ccc2c(CN(Cc3ccco3)Cc3ccco3)cc(=O)oc2c1C | 80%[activator] | -26%
Cc1cccc(NC(=O)c2sc3cccc(Cl)c3c2Cl)c1 | 63%[activator] | 6%
CN1C(=O)Cc2cc(-c3csc(-c4ccccc4)n3)ccc21 | 229%[activator] | 1%
